Autofluor counter: counter-screen for toxin protease inhibitors: compound fluorescence | compound autofluorescence counterscreen, microsphere flow cytometry; hits give high values | 360,000 compounds, 3.1% hits | fluorescence intensity (no concentration beside the values);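 active = at least 3 SD above the mean of all compounds, about 16000 in these data; inconclusive = too few beads counted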;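 note: 100 nL of 1 mM stock went into each well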
RN4220 kill: kills Staphylococcus aureus RN4220; S. aureus RN4220 growth, OD600, 16 h; inhibition, % (test concentration not listed); 330,000 compounds, 0.33% hits; AID 1259311;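 active = z-score of -3 or lower and OD600 up to 0.18 on both plates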;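 note: plate controls were untreated cells for no effect and reference antibiotic for full effect; stock transfer was 100 nL into about 80 µL; one replicate is shown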
BJeLR lethal: BJeLR cell viability loss | BJeLR (HRASV12) viability, CellTiter-Glo ATP luminescence, 48 h; reference of the scale not given here | inhibition, % (no concentration beside the values) | 300,000 compounds, 0.17% hits | AID 1554;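 active = replicate mean above 50%; inconclusive = above 50% but judged a plate artefact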;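 note: 50 nL library stock added to about 25 µL; numbers are from one replicate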
PrP UTR inh: suppresses PrP 5' UTR mRNA reporter expression. cell-based PrP 5' UTR mRNA reporter, plate reader. 340,000 compounds, 0.35% hits. inhibition, % (no concentration beside the values);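 active = every replicate at 50% or more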;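 note: 0 = median of the neutral control wells; tested in H4 reporter cells; numbers are from one replicate; inactives centre near -14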
ugtP null kill: compounds lethal to S. aureus RN4220 ugtP deletion mutant; AID 1259309; OD600 growth, 16 h; some inactives read as strong as hits; growth inhibition, % (no concentration beside the values); 330,000 compounds, 0.54% hits;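 active = z-score under -3 and OD600 up to 0.15 on both plates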;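 note: plate controls were untreated wells for no effect and antibiotic for full effect; wells of about 80 µL received 100 nL stock; the first replicate is given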
Mtb hypoxia rep: reduces hypoxia-regulated biosensor signal in M. tuberculosis. 300,000 compounds, 0.1% hits. M. tuberculosis hypoxia-regulated fluorescent reporter, fluorescence. fluorescence inhibition, % (concentration not given with the values);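 active = 35 to 45% if threefold the growth effect, above 45% if 1.5-fold the growth effect; inactive = the rest, general growth blockers included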;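 note: wells of about 50 µL received 100 nL stock; 0% = vehicle wells and 100% = reference inhibitor wells; whole bacteria with a GFP reporter of the hypoxia response; strong numbers were not always called active; many hits fall short of the cut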
Mtb hypoxia rep growth: recorded beside Mtb hypoxia rep, whose call it bears; growth inhibition, %; measured here: M. tuberculosis growth (absorbance);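 0% = vehicle and 100% = reference antibiotic; read after six days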
Active calls of the source: *; u = inconclusive; x = not tested or not shown; & = joins results of further samples.

Results follow in this order: Mtb hypoxia rep growth, RN4220 kill, Mtb hypoxia rep, PrP UTR inh, ugtP null kill, BJeLR lethal, Autofluor counter
CCN(CCNC(=O)C1CCCN(S(=O)(=O)c2cnc[nH]2)C1)c1ccccc1 (configuration not stated)
 : x, -0.1, x, 2, 6, 7, 4858
FC(F)(F)c1nnc2c(Sc3ccccn3)nc3ccccc3n12
 : 3, 5.1, 12, -30, -7, -6, 22962*
CCc1ccccc1Nc1nc2ccccc2[nH]1
 : -15, 2.8, -19, x, -6, -8, 4636
COc1ccccc1OC(C)C(=O)Nc1ccccc1C(=O)NCC1CCCO1 (configuration not stated)
 : -2, -2.3, -14, -7, -1, 2, 3709
Cc1ccc(-n2cc(CNCCc3ncc(C)[nH]3)c(-c3ccc(F)cc3)n2)cc1
 : 5, -2.6, 11, -7, 25, 1, 5212
OC(COc1ccc(Cl)cc1)CN1CCC(Cc2ccccc2)CC1 (configuration not stated)
 : 16, -1.5, 0, -12, -8, -2, 5675
O=C(O)c1c2c(nc3ccc(S(=O)(=O)N4CCC(C(=O)NC5CCCC5)CC4)cc13)CCCCC2
 : -3, 3.8, 0, -16, -6, 0, 5885
S=C(NCCCN1CCOCC1)NC1CCCC1
 : 6, 0.3, -9, -12, 5, 2, 2178
Cc1ccc(OC(=O)c2ccc(C)c(C)c2)cn1
 : 5, 7.2, 4, -27, -7, 1, 3789
O=C(NCCCn1ccnc1)/C(=C/c1ccc(F)cc1)NC(=O)c1ccccc1
 : -1, 2.8, 12, -22, -2, -8, 3073
CCOC(=O)C1CCN(Cc2ccc(N(C)C)cc2)CC1
 : 9, 4.5, 3, -23, -10, x, 8824
O=c1oc2c(CN3CCOCC3)c(O)ccc2c2ccccc12
 : 0, 7.7, -2, -35, -7, 9, 2644
O=C1[C@H](Oc2ccccc2)[C@@H](c2ccncc2)N1c1ccncc1
 : 5, 4.4, 4, -31, 5, x, 3682
C/C(CCc1ccc2c(c1)OCO2)=N\N=C1\NC(=O)CC(C(=O)Nc2ccccc2F)S1 (configuration not stated)
 : x, x, x, -2, x, 5, 3595
O=C(O)CCCCCNc1nc2ncn(Cc3ccccc3)c2c(=O)[nH]1
 : 4, 4.9, 16, -30, 8, 4, 12803
CN(C)S(=O)(=O)c1ccc(C(=O)Nc2ccc3c(c2)CCC3)cc1
 : 7, -0.3, 13, -50, 4, -11, 4033
CC1(c2ccc3c(c2)OCCO3)NC(=O)N(CC(=O)Nc2ccccc2SCC#N)C1=O (configuration not stated)
 : 2, 3.8, 7, -18, 2, x, 9682
Cc1ccc(S(=O)(=O)c2c(N)n(NC(=O)c3ccccc3C)c3nc4ccccc4nc23)cc1
 : 3, -1.0, 2, 8, -23, -18, 22674*
COc1ccc(NC(=O)CS(=O)c2ccc(Br)cc2)cc1 (configuration not stated)
 : -6, 3.7, -1, -20, 12, 8, 6001
CC[C@]12c3[nH]c4ccccc4c3CCN1C(=O)C(CC(=O)NCc1cccc(C(F)(F)F)c1)C[C@@H]2C(=O)N1CCN(C(=O)c2ccco2)CC1 (some centres not stated)
 : 0, -6.8, -1, -20, 0, x, 2785

An excerpt of the results above:
Results follow in this order: Mtb hypoxia rep growth, RN4220 kill, Mtb hypoxia rep, PrP UTR inh, ugtP null kill, BJeLR lethal, Autofluor counter
O=C(NCCCn1ccnc1)/C(=C/c1ccc(F)cc1)NC(=O)c1ccccc1
 : -1, 2.8, 12, -22, -2, -8, 3073
CCOC(=O)C1CCN(Cc2ccc(N(C)C)cc2)CC1
 : 9, 4.5, 3, -23, -10, x, 8824
O=c1oc2c(CN3CCOCC3)c(O)ccc2c2ccccc12
 : 0, 7.7, -2, -35, -7, 9, 2644
O=C1[C@H](Oc2ccccc2)[C@@H](c2ccncc2)N1c1ccncc1
 : 5, 4.4, 4, -31, 5, x, 3682
C/C(CCc1ccc2c(c1)OCO2)=N\N=C1\NC(=O)CC(C(=O)Nc2ccccc2F)S1 (configuration not stated)
 : x, x, x, -2, x, 5, 3595
O=C(O)CCCCCNc1nc2ncn(Cc3ccccc3)c2c(=O)[nH]1
 : 4, 4.9, 16, -30, 8, 4, 12803
CN(C)S(=O)(=O)c1ccc(C(=O)Nc2ccc3c(c2)CCC3)cc1
 : 7, -0.3, 13, -50, 4, -11, 4033
CC1(c2ccc3c(c2)OCCO3)NC(=O)N(CC(=O)Nc2ccccc2SCC#N)C1=O (configuration not stated)
 : 2, 3.8, 7, -18, 2, x, 9682
Cc1ccc(S(=O)(=O)c2c(N)n(NC(=O)c3ccccc3C)c3nc4ccccc4nc23)cc1
 : 3, -1.0, 2, 8, -23, -18, 22674*
COc1ccc(NC(=O)CS(=O)c2ccc(Br)cc2)cc1 (configuration not stated)
 : -6, 3.7, -1, -20, 12, 8, 6001
CC[C@]12c3[nH]c4ccccc4c3CCN1C(=O)C(CC(=O)NCc1cccc(C(F)(F)F)c1)C[C@@H]2C(=O)N1CCN(C(=O)c2ccco2)CC1 (some centres not stated)
 : 0, -6.8, -1, -20, 0, x, 2785

New compounds follow
Results follow in this order: Mtb hypoxia rep growth, RN4220 kill, Mtb hypoxia rep, PrP UTR inh, ugtP null kill, BJeLR lethal, Autofluor counter
O=CNCCc1nc2ccccc2n1CCc1ccccc1
 : 4, 2.6, -1, -12, 2, -4, 3363
CCCCOc1ccc(-c2nnn(CC(=O)Nc3ncc(CC(=O)OCC)s3)n2)cc1
 : x, -4.2, x, -6, 7, 0, 2228
Cc1ccc(CN2C(=O)C(CC(C)C)Nc3ncnc(N4CCN(c5ccccc5)CC4)c32)cc1 (configuration not stated)
 : 14, -3.9, -2, -6, -13, x, 3327&6015
Cc1nc(N)[nH]c(=O)c1CCCNc1ccc(CCC2(CCl)OCCO2)cc1
 : 6, 0.9, -8, -5, -1, x, 4111
CCCCNC(=O)COC(=O)c1cc(S(=O)(=O)N2CCCCCC2)ccc1OC
 : x, -2.2, x, -20, 3, -9, 4747
Cc1cc(C(=O)NNC(=O)c2cccc(Cl)c2)no1
 : -3, 5.4, -3, x, 4, 3, 6111
COc1ccc(S(=O)(=O)n2nc(-n3c(C)ccc3C)c3c(F)cccc32)cc1OC
 : 9, 1.7, -4, 1, 14, -3, 4272
Cc1ccc2c(C(=O)N3CCN(c4ccccc4)CC3)cc(-c3cccnc3)nc2c1C
 : 15, 0.5, 14, -9, 7, 5, 3209
COc1ccc(/C=C/c2c(-c3ccc(OC)cc3)sc3ccc(N4CCOCC4)cc23)cc1
 : x, x, x, -19, x, 1, 3851
COC(=O)/C(=N/Nc1ccccc1OC)N1CCCc2ccccc21
 : x, x, x, -20, x, 7, 3466
NC(=O)COc1ccc2oc(-c3ccccc3)cc(=O)c2c1
 : 3, 7.6, 13, -36, -3, -7, 3189
Cc1cc(C)n2cc(CSc3ncn[nH]3)nc2n1
 : 10, 4.1, 2, -22, 1, -2, 4045
Oc1ccccc1-c1nc(NCCN2CCOCC2)c2ccccc2n1
 : 20, -2.3, 9, -2, -8, -1, 3363
CCOC(=O)c1ccc(NC(=O)CC2S/C(=N/N=C/c3c[nH]c4ccccc34)NC2=O)cc1 (configuration not stated)
 : x, x, x, -40, x, -18, 2142
CC(CCc1ccc(O)cc1)NCCC(c1ccccc1)c1ccccc1 (configuration not stated)
 : 14, -6.0, 5, -6, -4, 9, x
CC(C)(C)NC(=O)c1cccc(NC(=O)CSc2ccc(Cl)cc2)c1
 : x, x, x, -20, x, 4, 1953
Cn1c(SCCS(=O)(=O)c2ccc(Cl)cc2)nnc1-c1ccccc1
 : x, -3.7, x, -19, 2, -1, 2982
CCOc1cc(/C=C2\SC(=Nc3ccccc3)N(c3ccccc3)C2=O)ccc1OCC(=O)O
 : 4, 14, 5, -16, 11, -6, 2447
COc1ccc(Oc2nccc(OC)c2C#N)cc1
 : 7, 5.3, 11, -22, 2, -8, 9277
CC1=C(C(=O)Nc2ccccc2)C(c2ccncc2)n2nnnc2N1 (configuration not stated)
 : 11, -0.4, 5, -19, -4, -8, u
O=C1C(=O)N(Cc2ccncc2)C(c2cccc(O)c2)/C1=C(\O)c1ccc2c(c1)OCCO2 (configuration not stated)
 : -5, 4.1, -2, 13, 11, -1, 4456
CC(C(=O)OCC(=O)c1cccc([N+](=O)[O-])c1)N1C(=O)C2C3C=CC(C3)C2C1=O (configuration not stated)
 : 14, 0.4, 9, -8, 9, -2, 3504
CN(C(=O)CSc1nnc(-c2c[nH]c3ccccc23)n1C1CC1)C1CCS(=O)(=O)C1 (configuration not stated)
 : 2, -1.8, 5, -8, 0, x, 3923
Cc1cc(C)nc(N2CCC(C(=O)NCc3ccco3)CC2)n1
 : 2, 1.3, 7, -29, -4, 0, 8698
Cc1c(C(=O)N(Cc2nccn2C)C(C)C)oc2c(F)cccc12
 : 11, 0.3, 6, 7, 7, 3, 5648
O=C(CNC(=S)N(CCCN1CCOCC1)Cc1cccs1)NC1CCCC1
 : 0, 1.1, -1, -9, 9, 5, 4038
COc1c(C)cc(Br)cc1C(=O)Nc1cccc(-c2nc3ncccc3o2)c1
 : 6, 27, -1, -5, 27, 12, 4428
CC(C)(C)N1OC2CC1c1nc3ccccc3n1C2 (configuration not stated)
 : 0, 3.9, -1, -23, 0, 0, 4197
COc1ccc(-c2ccccc2NC(=O)C2CCCN(Cc3ccco3)C2)cc1 (configuration not stated)
 : 8, 0.5, 7, -9, 3, 3, 5677
Cc1[nH]c2ccccc2c1CN1CCC(CO)(Cc2ccccc2)CC1
 : 2, -1.8, -1, -19, 1, 6, 2702
COc1ccc(CCNC2CC(=O)N(C3CCCCC3)C2=O)cc1OC (configuration not stated)
 : 15, 3.1, 8, -7, 1, 1, 5673
C=CCn1c(Cc2cccc3ccccc23)n[nH]c1=S
 : 4, 7.6, 5, 1, 4, -12, 2143
CCN1CCN(C(=O)c2cc(COc3c(C)cccc3C)on2)CC1
 : 8, 0.4, 5, -14, -1, -7, 5530
COc1ccc(O)c(C=NN=C2C(=O)Nc3ccccc32)c1
 : 9, 7.3, 17, x, -6, x, x
Cc1cc(NC(=O)c2cc(C(C)C)on2)no1
 : 0, -0.2, -4, -45, 3, -2, 8130
CS(=O)(=O)N(CC(=O)Nc1ccccc1C(=O)N1CCOCC1)c1ccc(Cl)cc1
 : 0, 1.3, 8, -17, -2, 15, 3635
Cc1ccccc1-c1nn[nH]n1
 : 13, 3.2, 13, -7, 0, -14, 21118*
Cc1cc(=O)oc2cc(NC(=O)c3cc(F)ccc3F)ccc12
 : 3, 2.6, 0, -91, 4, x, 4161
COc1ccc(CN(CC2CCCO2)C(=O)c2cc3ccccc3oc2=O)cc1 (configuration not stated)
 : -2, 1.2, 10, -58, 4, 6, 4324
CCN1CCN(c2cc3nc(C)n(Cc4ccccc4)c(=O)c3cc2NC(=O)c2ccccc2F)CC1
 : -6, 1.2, -9, -10, 4, 8, 2856
Nn1c(SCc2ccc(Br)cc2)nnc1-c1ccncc1
 : 5, 2.3, 13, -13, 6, 6, 4393
O=C(c1ccc(Cl)cc1)N1CCC(O)(CSc2ccc(Cl)cc2Cl)CC1
 : x, -5.7, x, -4, -18, -9, 2047
CCOc1ccc(C(Nc2ccc(C)cc2)P2(=O)OCCC(C)O2)cc1 (configuration not stated)
 : 2, 4.5, 5, -34, 3, -4, 2849
O=C(C[n+]1cc(-c2ccccc2)n2c1CCC2)Nc1nc(-c2ccc(F)cc2)cs1
 : 3, -12, 3, -18, -5, 11, 3039

Assay outcomes: PubChem BioAssay, several laboratories
